TRPML1 agonist = activates the human TRPML1 channel; Q9GZU1; TRPML1-expressing cells, Ca2+ dye fluorescence, FDSS; host cell line not named in the record; reference of the full effect not given here; activation, % (test concentration not listed); 410,000 compounds, 0.12% hits; AID 624414; in the data active = activation above about 50%; inconclusive = about 30% to 50%; inactive = below about 30%; further: 0% is about no effect; the text of the record puts the active cut at 80%
Target sequence (Q9GZU1 whole entry, looked up): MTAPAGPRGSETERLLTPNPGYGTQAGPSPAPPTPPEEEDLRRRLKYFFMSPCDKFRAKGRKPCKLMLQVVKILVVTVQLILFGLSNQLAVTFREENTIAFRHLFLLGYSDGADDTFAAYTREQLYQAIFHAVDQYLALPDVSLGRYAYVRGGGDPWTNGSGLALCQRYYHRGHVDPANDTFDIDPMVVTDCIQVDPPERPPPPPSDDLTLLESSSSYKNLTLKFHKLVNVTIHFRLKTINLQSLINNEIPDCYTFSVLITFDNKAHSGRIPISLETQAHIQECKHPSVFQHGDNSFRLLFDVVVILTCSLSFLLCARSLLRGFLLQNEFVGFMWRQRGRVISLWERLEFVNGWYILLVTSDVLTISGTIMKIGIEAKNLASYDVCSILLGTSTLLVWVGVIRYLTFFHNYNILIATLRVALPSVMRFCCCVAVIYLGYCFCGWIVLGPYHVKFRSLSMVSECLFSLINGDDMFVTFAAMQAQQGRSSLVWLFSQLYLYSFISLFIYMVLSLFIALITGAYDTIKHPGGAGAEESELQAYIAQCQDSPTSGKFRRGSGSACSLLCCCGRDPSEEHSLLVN
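In this qHTS format, compounds were pin-transferred onto Ca8-dye-loaded TRPML1-DL cells induced with Tet overnight, and intracellular Ca2+ fluorescence was recorded kinetically for 110 s after a 10 s baseline. A subsequent 4uM final 54-4 (EC80) addition followed by a second 110 s read served as the antagonist phase.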
TRPML1 blocker = blocks the human TRPML1 channel. TRPML1-inducible cells, Ca2+ dye fluorescence, FDSS; stronger effect = lower value; inhibition of EC80 agonist-evoked calcium signal. 390,000 compounds, 0.02% hits. Q9GZU1. activity change, negative = inhibition, % (no concentration beside the values); in the data active means activity change below about -50%; inconclusive means about -30% to -50%; inactive means above about -30%;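 further: stimulus is agonist 54-4 at its EC80 concentration; on the % scale 0 is the no-effect control and ±100 the full control effect; compound concentration not given in the record; the text of the record puts the active cut at -80%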
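Tet-induced TRPML1-DL cells loaded with Ca8 no-wash calcium dye were read kinetically on FDSS. Compound addition was followed by EC80 agonist 54-4 (4 uM final); inhibition was read over 110 s.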
PINK1 expr mod = modulators of PINK1 expression; PINK1 immunofluorescence, high-content cytometry, 24 h; Potency, µM (doses to about 76.6 µM), for inactives: top-dose activation (PINK1 increase), most hits filed as activators; 410,000 compounds, 0.2% hits; AID 624263; active = well fitted activation curve with a large enough effect; inconclusive = small, poorly fitted or top-dose-only effect; inactive = flat fitted curve, though single readings scatter; cell line not stated here;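 further: potency means the concentration at half of the fitted maximal effect; % of control where 0% means no effect; nearly all actives have a fitted effect of over 65% in size; a mitochondrial uncoupler was the plate control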
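Measures PINK1 amount and localization on or inside mitochondria by immunofluorescence. Stable cells get compounds at 5 concentrations for 24 hours before fixation and staining; CCCP controls included.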
Six1-Eya2 blk = blocks human Six1 binding to Eya2; Q15475+O00167; AlphaScreen GST-Six1/His-Eya2 binding, biochemical; stronger effect = lower value; control for the full effect not named in the record; activity change, % (test concentration not listed); 360,000 compounds, 0.56% hits; AID 651725; in the data active = activity change below about -65%; inconclusive = about -30% to -65%; inactive = above about -30%; further: on the % scale 0 is the no-effect control and ±100 the full control effect
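GST-Six1 + His-Eya2 (5X stock: 250/500 nM); Tris pH 8.0, 300 mM NaCl, 0.05% BSA, 0.02% Tween 20; GSH donor/Ni acceptor beads; 1 h 37 °C dark; AlphaScreen readout.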
CtBP-E1A inh = inhibitors of CtBP/E1A interaction; AlphaScreen GST-E1A/His-CtBP binding, 1536-well; stronger effect = lower value; control for the full effect not named in the record; activity change, % (no concentration beside the values); 340,000 compounds, 0.49% hits; AID 651724; in the data active means activity change below about -65%; inconclusive means about -30% to -65%; inactive means above about -30%; further: on the % scale 0 is the no-effect control and ±100 the full control effect
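Steps: dispense buffer (Tris pH 8.0, NaCl 300 mM, TCEP 1 mM, BSA, Tween 20); add 5X protein mix (GST-E1A, His-CtBP, 125 nM each); pin 23 nL compound; 2 h at 37 °C, dark; add 5X beads (50 ug/mL); 1 h; read.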
D2 agonist = agonists of human D2 dopamine receptor (beta-arrestin) | P14416 | DiscoveRx PathHunter D2 beta-arrestin, luminescence, 90 min; 100% = 57 uM dopamine signal | activation, % (concentration not given with the values) | 360,000 compounds, 0.084% hits; in the data active = activation above about 40%; inconclusive = about 15% to 40%; inactive = below about 15%; further: the text of the record calls up to 30% inactive
Target sequence (P14416 whole entry, looked up): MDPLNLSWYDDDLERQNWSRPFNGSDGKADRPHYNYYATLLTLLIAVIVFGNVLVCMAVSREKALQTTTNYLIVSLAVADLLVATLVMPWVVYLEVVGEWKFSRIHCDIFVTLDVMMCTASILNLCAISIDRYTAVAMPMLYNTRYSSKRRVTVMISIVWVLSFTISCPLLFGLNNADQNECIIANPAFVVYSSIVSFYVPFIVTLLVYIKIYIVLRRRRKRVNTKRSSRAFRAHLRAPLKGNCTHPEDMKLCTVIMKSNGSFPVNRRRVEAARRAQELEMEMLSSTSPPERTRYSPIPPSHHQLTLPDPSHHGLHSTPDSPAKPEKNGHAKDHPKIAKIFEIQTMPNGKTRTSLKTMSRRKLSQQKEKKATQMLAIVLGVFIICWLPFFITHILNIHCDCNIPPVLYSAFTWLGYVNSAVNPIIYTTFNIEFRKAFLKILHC
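Agonist mode: compounds alone added to overnight-plated D2 PathHunter cells for 90 min at 37 C, with 57 uM final dopamine (EC100) defining full response. Beta-arrestin recruitment detected by chemiluminescent reagent, read after 1 h at ambient temperature.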
* marks the source's active call; other numbers are inactive results; ? = inconclusive; nt = no result given; & = joins results of further samples; [ ] = dose if it differs, or a comment.

SMILES	TRPML1 agonist	TRPML1 blocker	PINK1 expr mod	Six1-Eya2 blk	CtBP-E1A inh	D2 agonist
CC(/C=N/NC(=O)c1nnn(-c2nonc2N)c1C)=C\c1ccccc1	-1.2	23	8.8%	2	-1	-8.7
Cc1c(C#N)c(O)n(C)c(=O)c1N=Nc1ccc(S(N)(=O)=O)cc1	1.7	-4	0.6%	1	nt	-2.6
CCc1cc(=O)oc2c(CN3CCN(C)CC3)c(O)ccc12	-0.7	-1	0.0%	1	-9	-2.8
Cc1cc(Cl)ccc1OC(C)C(=O)NCCCn1ccnc1 (stereo unspecified)	-0.9	7	1.8%	3	-26	-1.6
COc1ccc(OC)c(-c2cc(C(=O)N3CCN(c4ccccc4)CC3)no2)c1	0.1	-10	1.6%	-23	-11	3.2
O=C(Nc1ccccc1N1CCCCC1)c1cccc(F)c1	-0.3	14	nt	23	20	1.0
CCCc1nc2c(nnn2Cc2ccccc2F)c(=O)[nH]1	0.9	-10	nt	3	2	-1.4
Nn1c(SCC(=O)NCc2ccccc2)nncc1=O	1.0	2	0.5%	0	-9	1.0
COc1ccc2oc(=O)cc(CN3CCOCC3)c2c1	-0.2	10	-0.5%	0	12	6.4
O=C(CNc1ccc2ccccc2c1)N/N=C/c1ccc(OC(=O)/C=C/c2ccco2)cc1	-0.1	3	3.6%	?	-67*	2.4
O=C1Cc2ccccc2C(=O)N1Nc1ccccc1	0.2	15	0.1%	1	2	-4.1
COc1ccc(NC(=S)NC(=O)/C=C/c2ccccc2)cc1	-0.6	-2	1.3%	-4	-6	12
CC(=O)NC(=S)Nc1sc2c(c1C#N)CCCCC2	-0.6	20	24%	-3	0	0.9
CC(C)c1ccc(Nc2nc(CC(=O)O)cs2)cc1	0.2	-9	16%	-2	-3	0.6
CC(=O)N(C)c1ccc(NC(=S)NCC(C)C)cc1	3.7	-13	-0.5%	2	6	1.6
COCCCN(CC(=O)Nc1ccc(N2CCOCC2)cc1)S(=O)(=O)c1ccc(C)cc1	-0.3	-3	0.6%	-1	7	2.6
N#Cc1ccc(-c2csc(NC3=NCCCCC3)n2)cc1	0.0	-1	0.4%	-17	-22	-3.8
Cc1cc(NC(=O)CSc2nc3ccccc3c(=O)n2Cc2ccc(F)cc2)no1	0.5	13	?	1	-1	-2.1
CC(C)(C)OC(=O)C[C@H]1C/C=C\C[C@@H](CC(=O)N(CCO)Cc2ccccc2)C(=O)NC[C@@H](c2ccccc2)OC1=O	-0.1	6	0.1%	-6	nt	-2.5
Nc1ncnc2c1ncn2C1CCCO1 (stereo unspecified)	-0.6	-1	2.1%	0	0	1.9
COc1ccc(-n2nc3c(c2NC(=O)C(=O)NCc2ccccc2)CSC3)cc1	2.6	-3	4.0%	nt	nt	nt
O=c1c(Br)c(NCc2ccccc2)cnn1-c1ccc(F)cc1	0.4	4	-1.9%	4	0	-6.3
COc1ccc(Cl)cc1NC(=O)C1CC(c2ccccc2O)=NO1 (stereo unspecified)	2.2	19	4.3%	-2	-14	-0.6
O=C(NC(CO)(CO)CO)[C@@H]1CCCN1S(=O)(=O)c1cccc2cccnc12	0.0	37	2.2%	3	4	-4.0
CCCc1cc(=O)oc2cc(C)cc(OCC(=O)Nc3ccccn3)c12	0.5	11	2.3%	0	-6	-0.2
Next section.
SMILES	TRPML1 agonist	TRPML1 blocker	PINK1 expr mod	Six1-Eya2 blk	CtBP-E1A inh	D2 agonist
O=C(COC(=O)C1CC(O)CN1S(=O)(=O)c1ccc(Cl)cc1)c1cccc(Cl)c1 (stereo unspecified)	-0.9	46	-1.7%	3	0	-1.5
O=C(CC1CCCC1)N1CCN(S(=O)(=O)c2cccc(Br)c2)CC1	-0.6	18	0.7%	-1	1	-1.4
COc1ccc(-c2nc3ccccc3o2)cc1NC(=O)c1ccc(-c2ccc(C)c(Cl)c2)o1	1.1	3	1.1%	nt	nt	nt
CCOCCCNc1ccc(N2C(=O)C3CCCCC3C2=O)cc1[N+](=O)[O-] (stereo unspecified)	0.8	-2	-1.6%	-4	7	-2.5
Cc1nnc(NC(=O)CSc2nnc(C(C)NC(=O)c3ccccc3F)n2C)s1 (stereo unspecified)	2.3	31	-0.2%	8	4	-2.3
Cc1ccc(/C=N/NC(=O)c2ccncc2)cc1	-0.2	27	1.6%	7	7	-2.9
CC(=O)N(C)c1ccc(NC(=O)N2CCOCC2)cc1	0.3	-1	-0.1%	1	8	2.1
CCOc1ccc(CNc2nnnn2C)cc1	nt	nt	0.4%	1	nt	-0.6
COc1ccc(C(=O)CSc2nnc(-c3ccccc3)o2)cc1	-0.9	-4	4.9%	-4	8	-2.5
CC1CC(C)CN(C(=O)c2ccc3ncsc3c2)C1 (stereo unspecified)	1.1	-16	0.9%	12	-2	-0.9
CC(=O)N/C(=C\c1cccs1)C(=O)O	-0.8	9	0.1%	19	nt	5.0
CC(C)(C)c1ccc(Cn2nnc3c(=O)[nH]c(C4CCCN(C(=O)c5ccco5)C4)nc32)cc1 (stereo unspecified)	1.1	27	-0.4%	-26	-7	-1.0
Cc1cc(C)cc(Oc2ncnc3c2ncn3Cc2c(Cl)cccc2Cl)c1	3.0	35	23%[38.3 µM]	-1	0	-2.6
O=C(O)c1ccc2c3n(nc2c1)-c1ccc(Cl)cc1CO3	-0.8	-1	1.2%	-4	0	0.9
CC(C)(C)OC(=O)N1CCC(C(=O)Nc2cccc(C(=O)N3CCCC3)c2)CC1	1.6	17	-1.1%	8	5	2.2
O=C(O)c1ccc(N2C(=O)c3cccc(Oc4ccc(Cl)cc4)c3C2=O)cc1	-0.5	1	4.8%	2	0	-3.1
Cc1ccc(C(=O)OCC(=O)NC2CCCC2)cc1C	-1.0	11	9.1%	11	-1	-2.8
O=C(c1cc(-c2ccc(O)cc2)on1)N1CCc2ccccc2C1	1.7	-11	1.5%	7	3	-5.4
O=C(Nc1ccc(NC(=O)c2ccccc2Cl)cc1)c1cccnc1	0.1	17	4.0%	-6	0	-0.1
Cc1ccc(-c2nn(C)c(=O)c3ccccc23)cc1CNC(=O)/C=C/c1ccccc1	2.8	-3	1.4%	-4	-6	-1.4
CCN1C(=O)CC(NNC(=O)c2ccccc2)C1=O (stereo unspecified)	4.8	2	-0.6%	1	0	-1.4
CCOc1ccccc1N1CCN(C(=S)Nc2ccc(S(=O)(=O)Nc3ncccn3)cc2)CC1	-0.2	-1	2.7%	-2	19	-1.6
O=C(/C=C/c1ccccc1[N+](=O)[O-])Nc1cccnc1	0.2	-20	0.7%	4	0	-1.6
CCC(=O)N1CCc2cc(S(=O)(=O)CCC(=O)NCc3ccc(C)cc3)ccc21	0.3&-0.5	-9&4	3.1%&1.7%	6	0	-0.4
N#Cc1ccc(Oc2cnccn2)cc1	-0.7	4	-0.7%	-4	-1	-1.8
Carrying on.
SMILES	TRPML1 agonist	TRPML1 blocker	PINK1 expr mod	Six1-Eya2 blk	CtBP-E1A inh	D2 agonist
COc1cc2ccccc2cc1C(=O)Nc1ccccc1C	2.0	16	2.8%	25	15	1.6
CC(=O)Nc1cccc(-c2ccnc3c2CC(C(=O)NCC2CC2)O3)c1 (stereo unspecified)	-0.1	40	12%	-2	0	2.0
Cc1ccc2oc3c(c(=O)c2c1)C(c1ccc([N+](=O)[O-])cc1)N(CCCN1CCOCC1)C3=O (stereo unspecified)	-0.6	-13	0.7%	nt	nt	nt
Cc1cccc(NC(=O)c2cc([N+](=O)[O-])ccc2NC2CCCCC2)c1	2.5	19	16%	?	-30	-4.6
Cn1c2c(c(=O)[nH]c1=O)C(c1ccc(O)cc1)C1=C(N2)c2ccccc2C1=O (stereo unspecified)	0.0	-7	-1.0%	-23	-28	-3.3
COC(=O)c1ccc(OCc2nc(N)nc(N3CCOCC3)n2)cc1	-0.3	6	1.7%	2	-1	-0.8
CCc1nnc(NC(=O)CSc2nnc(-c3ccccc3NC(=O)c3ccccc3)o2)s1	1.5	-8	-1.8%[38.3 µM]	-15	-27	5.7
CCOc1ccc2nc(NCCCNS(=O)(=O)c3ccccc3)c(C#N)cc2c1	1.0	36	-0.2%	37	31	0.9
Cc1ccc(NC(=O)CC(N)=S)cc1	-0.3	0	-0.3%	-3	nt	-12
COc1ccc(OCC(=O)Nc2nnc(C)s2)cc1	0.1	-2	-1.9%	-1	1	-0.6
COc1ccccc1-n1c(=O)c2c3c(sc2n2c(=S)[nH]nc12)CCC3	0.8	11	-1.2%	-1	0	-2.6
CC1(C(=O)NCCC#N)CCN1C(=O)Cc1ccc(-c2ccccc2)cc1 (stereo unspecified)	-0.4	nt	-0.7%	11	5	6.5
CCc1nnc(NC(=O)c2ccc(S(=O)(=O)N(C)c3ccccc3)cc2)o1	2.7	-13	-0.1%	-17	-23	-5.6
Cc1cc2nc3c(=O)n(C4CCCCC4)c(=O)[nH]c3nc2cc1N	87*	-30	14µM*	?	?	5.4
N#CCCN/N=C(\Cc1nc2ccccc2[nH]1)c1ccccc1	0.8	11	10%[38.3 µM]	-15	-15	-1.9
C1CC1Cc1noc(CN2CCN(CC3CC3)CC2)n1	0.8	-6	0.5%	-4	-4	0.1
Cc1ccc(NCc2nnc(SCC(=O)c3ccccc3)n2Cc2ccco2)c(C)c1	1.3	-9	-0.9%	-14	-20	-2.9
CCN(CC)CCn1c(NC(=O)c2ccc(Cl)cc2)nc2ccccc21	-0.2	-1	nt	-1	13	0.9
O=C(COC(=O)c1ccc(Cl)nc1)Nc1cc(S(=O)(=O)N2CCCCC2)ccc1Cl	1.5	50	0.6%	-2	-2	-2.7
Cc1cc(Nc2ccc(C)c(Cl)c2)nc(N2CCOCC2)n1	-0.2	2	1.8%	-7	-4	-1.3
O=C(O)c1cccc2cccc(-c3c4ccc(=O)c(O)c-4oc4c(O)c(O)ccc34)c12	1.8	20	-0.3%	-76*	0	5.3
COc1ccc(NC(=O)Nc2ccc3nc(C)c(C)nc3c2)cc1	-0.6	3	6.2%	-19	-17	-1.5
Cc1cc(C)nc(SCCc2ccncc2)n1	0.0	-8	0.4%	-2	1	-2.6
S=C(c1ccc(-c2ccccc2Cl)o1)N1CCCCC1	2.9	25	6.6%	?	-13	-1.0

Part of the list above, as labelled records.
CCc1nnc(NC(=O)c2ccc(S(=O)(=O)N(C)c3ccccc3)cc2)o1
  TRPML1 agonist = 2.7 | TRPML1 blocker = -13 | PINK1 expr mod = -0.1% | Six1-Eya2 blk = -17 | CtBP-E1A inh = -23 | D2 agonist = -5.6
Cc1cc2nc3c(=O)n(C4CCCCC4)c(=O)[nH]c3nc2cc1N
  TRPML1 agonist = 87* | TRPML1 blocker = -30 | PINK1 expr mod = 14µM* | Six1-Eya2 blk = ? | CtBP-E1A inh = ? | D2 agonist = 5.4
N#CCCN/N=C(\Cc1nc2ccccc2[nH]1)c1ccccc1
  TRPML1 agonist = 0.8 | TRPML1 blocker = 11 | PINK1 expr mod = 10%[38.3 µM] | Six1-Eya2 blk = -15 | CtBP-E1A inh = -15 | D2 agonist = -1.9

Six1-Eya2 blk: entries above that show a hit
Compound | TRPML1 blocker | PINK1 expr mod | Six1-Eya2 blk | CtBP-E1A inh | D2 agonist
O=C(O)c1cccc2cccc(-c3c4ccc(=O)c(O)c-4oc4c(O)c(O)ccc34)c12 | 20 | -0.3% | -76* | 0 | 5.3
